Screening results as filed in PubChem.
MgrA DNA FP: alters Staphylococcus aureus MgrA binding to DNA. inhibition, %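 (about 10 µg/mL by stock and volumes)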. 0.13% of 84,000 active. fluorescence polarization;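 active = above 50% in either of two replicates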;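 note: 0% = protein plus DNA without compound and 100% = DNA alone without protein; higher means less MgrA bound to DNA so lower polarization; one replicate is shown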
S aureus helic: blocks Staphylococcus aureus DNA helicase | inhibition, %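 (tested at about 80 µM)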 | purified S. aureus helicase, fluorescence unwinding assay; about half of the hits fall short of the stated cut | AID 485395 | 0.05% of 120,000 active;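 active = both duplicates at 50% or more, or one of them with a favoured structure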;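 note: 0% = mean of negative control wells and 100% = mean of positive control wells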
Active calls of the source: *; . = not tested or not shown. An excerpt. The share of hits here may be higher or lower than overall.

Preview, 2 compounds:
no. | canonical_smiles | MgrA DNA FP | S aureus helic
1 | CCN(CC)S(=O)(=O)c1ccccc1/C=N/O | -1.4 | 1
2 | CCOc1ccc2nc(SCc3ccc(C#N)cc3)[nH]c2c1 | . | 12

The whole of this part, repeating the preview:
no. | canonical_smiles | MgrA DNA FP | S aureus helic
1 | CCN(CC)S(=O)(=O)c1ccccc1/C=N/O | -1.4 | 1
2 | CCOc1ccc2nc(SCc3ccc(C#N)cc3)[nH]c2c1 | . | 12
3 | O=C(COC(=O)C(c1ccccc1)c1ccccc1)NC1CCCCC1 | 1.9 | 17
4 | CCCS(=O)(=O)NCc1cn2ccc(C)cc2n1 | . | -14
5 | CCOC(=O)NC(=O)c1cn(Cc2ccco2)c(=O)n(Cc2ccccc2)c1=O | -1.5 | .
6 | CC(C)NC(=O)c1sc2c(c1C(=O)Nc1cccnc1)CCCC2 | 0.3 | 9
7 | CCOC(=O)C1=C(C)NC(SCC(=O)N2CCOCC2)=C(C#N)C1c1ccco1 (stereo unspecified) | . | 5
8 | Cc1c(Cc2ccc3c(c2)OCO3)sc(NC(=O)c2ccco2)c1C(N)=O | . | 3
9 | CCN(CC)P(=O)(c1nc2ccccc2n1CC)N(CC)CC | . | 3
10 | O=C(NCCc1ccccc1)Oc1ccc(Cl)cc1 | -7.0 | .
11 | CCOC(=O)C(=NCC1CCCO1)NNc1cc(Cl)ccc1Cl (stereo unspecified) | . | -17
12 | CCn1c(C)nc2c1C(=O)c1ccccc1C2=O | . | 15
13 | CN1CCC(N(C)Cc2csc(-c3ccc(Cl)cc3)n2)CC1 | . | -17
14 | O=C1Cc2ccccc2C(c2ccccc2Cl)N1 (stereo unspecified) | -0.4 | .
15 | CC1Sc2ccc(C(=O)N=c3sc4ccccc4n3C)cc2NC1=O (stereo unspecified) | . | 23

Three of the entries above in order of their number in S aureus helic, lowest first:
no. | canonical_smiles | MgrA DNA FP | S aureus helic
1 | CCN(CC)S(=O)(=O)c1ccccc1/C=N/O | -1.4 | 1
8 | Cc1c(Cc2ccc3c(c2)OCO3)sc(NC(=O)c2ccco2)c1C(N)=O | . | 3
2 | CCOc1ccc2nc(SCc3ccc(C#N)cc3)[nH]c2c1 | . | 12

The listing picks up, starting seven compounds before the break.
no. | canonical_smiles | MgrA DNA FP | S aureus helic
9 | CCN(CC)P(=O)(c1nc2ccccc2n1CC)N(CC)CC | . | 3
10 | O=C(NCCc1ccccc1)Oc1ccc(Cl)cc1 | -7.0 | .
11 | CCOC(=O)C(=NCC1CCCO1)NNc1cc(Cl)ccc1Cl (stereo unspecified) | . | -17
12 | CCn1c(C)nc2c1C(=O)c1ccccc1C2=O | . | 15
13 | CN1CCC(N(C)Cc2csc(-c3ccc(Cl)cc3)n2)CC1 | . | -17
14 | O=C1Cc2ccccc2C(c2ccccc2Cl)N1 (stereo unspecified) | -0.4 | .
15 | CC1Sc2ccc(C(=O)N=c3sc4ccccc4n3C)cc2NC1=O (stereo unspecified) | . | 23
16 | CC1CCc2sc(NC(=O)C(Cc3ccccc3)Cc3ccccc3)c(C#N)c2C1 (stereo unspecified) | 3.5 | 9
17 | CC(SC#N)C(=O)C12CC3CC(CC(C3)C1)C2 (stereo unspecified) | . | -18
18 | O=C(O)CSCC(=O)Nc1ccccc1N1CCCCC1 | -1.6 | .
19 | CCOC(=O)N1CCN(c2ccc(NCc3cc4ccc(OC)cc4[nH]c3=O)cc2)CC1 | . | -23
20 | COc1ccccc1-n1ccn(CC#N)c(=O)c1=O | . | -14
21 | CC(C)(C)NC(=O)CN1CCN(C(=O)CN2CCc3ccccc32)CC1 | . | -9
22 | O=C(CSc1nnc(-c2ccco2)o1)OCc1cc(=O)n2c(n1)sc1ccccc12 | . | 14
23 | Cc1nnc(SCC(=O)O)[nH]c1=O | 0.5 | -3
24 | O=C1OCCC1Sc1ncnc2c1cnn2-c1ccccc1 (stereo unspecified) | . | -20
25 | CCc1cccc2c(/C=C3/C(=O)N(C)c4ccccc43)cn(CC(=O)NC3CCCC3)c12 | 9.9 | -56
26 | O=C(Cn1ncc2c1-c1ccoc1CC2)NCc1ccccc1Cl | . | -3
27 | Cc1cc2ncn(Cc3ccccc3C)c2cc1C | 0.9 | 13
28 | Cc1noc(/C=C/N(C)C)c1S(=O)(=O)N(CCc1ccccc1)Cc1ccccc1 | . | 4
29 | Cc1c(Cl)cccc1NC(=O)c1cccnc1Cl | 2.8 | -7
30 | COc1ccc(NC(=O)c2nn3c(c2Cl)NC(c2ccc(OC)c(OC)c2)CC3C(F)(F)F)cc1OC (stereo unspecified) | -0.5 | .
31 | CN1CCN(S(=O)(=O)c2ccc(NC(=O)c3ccncc3)cc2)CC1 | -2.1 | 10
32 | Cn1c(=N)n(CC(=O)O)c2ccccc21 | . | 10
33 | COC(=O)C(=C(C)C)c1ccc(N(C)C)cc1 | -2.2 | .
34 | CC1CCCN(CC(O)CN)C1 (stereo unspecified) | 1.9 | -6
35 | Cc1nc(Cl)c(N)c(Cl)n1 | . | 5
36 | COc1ccc(CC(=O)NCC2COC3(CCCCC3)O2)cc1OC (stereo unspecified) | . | 7
37 | CC(C)CC(NS(=O)(=O)c1ccc2c(c1)oc(=O)n2C)C(=O)NCc1ccco1 (stereo unspecified) | . | -20
38 | O=C(Cn1cnc2c(oc3ccccc32)c1=O)N1CCCCCC1 | 0.5 | -3
39 | O=C(O)CSc1ncnc2scc(-c3ccc(Br)cc3)c12 | -3.8 | -7
40 | COc1cccc2c(C)cc(=O)[nH]c12 | 0.4 | 10
41 | O=C1c2ccccc2C(=O)N1CCN1CCN(CCN2C(=O)c3ccccc3C2=O)CC1 | . | 11
42 | Cc1ccc2cccc(OCc3ccccc3)c2n1 | . | -15
43 | CSc1sc(-c2ccn[nH]2)c(-c2cccs2)c1C#N | -2.4 | .
44 | O=C(Nc1cccc(-c2nc3ccccc3s2)c1)c1ncn[nH]1 | . | 6
45 | CC1=C(C(=O)OC2CC(C(C)C)CCC2C)C(CC(=O)O)C(=O)N1 (stereo unspecified) | 4.5 | -7
46 | CCOC(=O)C1=C(CSc2nc3cc(C(=O)OCC)ccc3n2CC)NC(=O)NC1C (stereo unspecified) | . | 6
47 | COc1ccc(N2CCN(/C=C(\C#N)c3nc4ccccc4s3)CC2)cc1 | . | -98
48 | Cc1noc2ncnc(N(CCO)c3ccccc3)c12 | . | -1
49 | CCCn1c(=O)c(/C(N)=N/O)nn(-c2cccc(C(F)(F)F)c2)c1=O | 2.8 | .
50 | C=C(C)CC1C(=O)N(S(=O)(=O)c2ccccc2Cl)N=C1C (stereo unspecified) | -0.3 | .
51 | COc1ccc2cc(CCNC(=O)CC(C)C)c(=O)[nH]c2c1 | . | -18
52 | Cc1nc2cc(-c3ccccc3)nn2c(C)c1CCC(=O)NCCCc1ccccc1 | . | 12
53 | O=C(O)CSC1CC(=O)N(c2ccccc2)C1=O (stereo unspecified) | 0.7 | .
54 | O=C1Nc2ccccc2C1(O)c1ccccc1 (stereo unspecified) | -1.4 | .
55 | Fc1ccc(N2CCN(c3ncc4c(n3)CCNC4)CC2)cc1 | . | 14
56 | CC(c1cccs1)N(C(=O)Nc1ccccc1)C1CCCCC1 (stereo unspecified) | 0.1 | 9
57 | CCOC(=O)N1CCC(NS(=O)(=O)c2cccs2)CC1 | -1.1 | .
58 | N#CCc1ccc(Oc2ccc([N+](=O)[O-])cn2)cc1 | -0.9 | .
59 | O=C(O)CN1CCCCC1 | 14 | -5
60 | CCN1C(=O)CC(C(=O)Nc2ccccc2)SC1=Nc1ccccc1 (stereo unspecified) | 1.8 | 1
61 | COc1ccc(C(=O)Nc2ccc3oc(-c4ccccc4Cl)nc3c2)cc1[N+](=O)[O-] | -2.2 | .
62 | Cc1cccc(N2CCN(c3nc4ccccc4n4nnnc34)CC2)c1C | . | 17
63 | CC1CCN(CCCNC(=O)C2CC(=O)N(CCc3ccccc3)C2)CC1 (stereo unspecified) | -0.1 | 1
64 | C#CCSc1nc2c(c(=O)[nH]1)C(c1ccccc1)CC(=O)N2 (stereo unspecified) | 1.4 | 3
65 | CCCNC1=C(c2ccc(OC)cc2)C(=O)c2ccccc21 | 2.0 | 9
66 | O=S1(=O)CCN(C2CCCCCC2)CC1 | -0.8 | .
67 | N#Cc1c2ncnc(-c3ccc(Cl)cc3)c2n2ccccc12 | 1.4 | -7
68 | O=C1N=c2ccccc2=C1N=Nc1c(O)[nH]c2ccccc12 | . | -23
69 | O=C(NCc1ccccc1)C1C2C=CC3(CN(Cc4ccccc4Cl)C(=O)C13)O2 (stereo unspecified) | . | 31
70 | O=C(NC(=O)N1CCN(c2ccc(F)cc2)CC1)c1ccccc1 | 5.8 | 5
71 | O=C(NC(=O)c1ccccc1C(F)(F)F)NN1CCOCC1 | . | 22
72 | O=C(O)CCC(=O)N1N=C(c2ccc(Br)cc2)CC1c1cccc([N+](=O)[O-])c1 (stereo unspecified) | -2.6 | .
73 | COc1ccccc1NC(=O)C1Sc2nnc(-c3ccccc3)n2NC12CCCCC2 (stereo unspecified) | . | -14
74 | C(=NN1CCN(Cc2ccccc2)CC1)c1ccccc1 | . | 12
75 | CCc1cc2c(=O)c(-c3nncn3-c3ccccc3)coc2cc1O | . | -14

Following part
no. | canonical_smiles | MgrA DNA FP | S aureus helic
76 | CCSc1nc2ccccc2n1C(=O)c1ccc(Cl)cc1 | 0.2 | -14
77 | N#C/C(=N\Nc1cccc(F)c1)C(=N)N1CCCCC1 | . | 11
78 | O=C(/C=C/c1ccc2ccccc2n1)OCC(=O)N1CCN(S(=O)(=O)c2ccccc2)CC1 | . | 12
79 | CC(=O)OCC(=O)CC12CC3CC(CC(C3)C1)C2 | . | -1
80 | CC1(C)CC(=O)C=C(NNC(=O)COc2ccccc2)C1 | . | 2
81 | CCNc1nc(OC)nc(SCC(=O)OC)n1 | -0.6 | 9
82 | COC(=O)c1sccc1-n1cccc1 | -2.4 | 16
83 | COc1ccc(N2CCN(C(=O)c3cccs3)CC2)cc1 | -0.6 | 17
84 | O=C(Nc1ccccc1)OC(CN1CCCCC1)C(F)(F)F (stereo unspecified) | 2.0 | .
85 | CCOC(=O)c1c(-c2ccc(OC)cc2)oc2ccc(OCC)cc12 | . | -26
86 | Cc1c(C)c2ccc(OCC(N)=O)cc2oc1=O | -2.1 | -12
87 | Cc1ccc(NC(=O)c2c(-n3c(C)ccc3C)sc3c2CCCC3)cc1 | 2.2 | 7
88 | CCOC(=O)CSc1cc(Nc2ccc(Br)cc2)ncn1 | . | -83
89 | CCOc1ccc(CN(C)CC(O)COCc2ccc(OC)cc2)cc1OC (stereo unspecified) | . | 0
90 | Cc1nc(NC(=S)NC(=O)c2ccc(-c3cccc(Cl)c3)o2)ccc1Br | 1.6 | 4
91 | Cc1cc(=O)[nH]c(SCC2COC3(CCCCC3)O2)n1 (stereo unspecified) | 0.9 | 6
92 | CCOC(=O)N/N=C/c1ccccc1O | -1.2 | .
93 | CN(Cc1ccccc1)S(=O)(=O)c1ccc(NC(=O)c2nc(S(C)(=O)=O)ncc2Cl)cc1 | 8.9 | 9
94 | Cc1cc(C)nc(N=Nc2cc(C(C)(C)C)c(O)c(C(C)(C)C)c2)n1 | 1.4 | .
95 | COC(=O)c1cnn(-c2ccc(Cl)cc2)c1C=Nc1ccc(C)cc1 | -1.5 | .
96 | O=C1/C(=C/C=C/c2ccco2)SC(=S)N1C1CCCCC1 | . | 11
97 | COC(=O)N1N=C(C2CCCCC2)CC1(O)C(F)(F)F (stereo unspecified) | 1.4 | -5
98 | Cc1c(CN2CCCCC2C)c(=O)n(-c2ccccc2)n1C (stereo unspecified) | -1.3 | .
99 | CCCC(=O)NCCc1cn2ccc(C)cc2n1 | . | 2
100 | O=C(N(c1ccccc1)C1C=CS(=O)(=O)C1)C12CC3CC(CC(C3)C1)C2 (stereo unspecified) | -2.3 | 7
101 | COc1ccc(OCC(=O)NCCSc2ccccn2)cc1 | . | 6
102 | CC(NC(=O)c1cccs1)C(c1cccs1)N1CCOCC1 (stereo unspecified) | . | 1
103 | CCc1nn(C)c2c(=O)c(=O)c2n(C)[nH]1 | 13 | .
104 | CCn1c(SCc2cc(=O)n3ccsc3n2)nnc1-c1cccs1 | . | 0
105 | CC(C)CCSc1nc(N)c2c3c(sc2n1)CCCC3C (stereo unspecified) | 1.1 | 0
106 | Cc1nc(-c2ccccn2)nc(N2CCN(c3ncnc4scc(-c5ccccc5)c34)CC2)c1Cl | -3.7 | .
107 | CC(C)Nc1cc(Br)c2noc3c2c1C(=O)c1ccccc1-3 | 18 | -277
108 | O=C(Oc1ccc2c(=O)ccoc2c1)c1ccc(Cl)cc1Cl | 0.9 | .
109 | N#CC1=C(N)C(C#N)(C#N)C(C2C=CCCC2)C2CCCC=C12 (stereo unspecified) | . | -34
110 | O=C(C1CC(c2ccc(F)cc2)=NO1)N1CCCC1 (stereo unspecified) | . | 13
111 | CCN(CC)c1ccc(NC(=O)COC(=O)Cc2ccc(Cl)cc2)cc1 | 0.5 | -24
112 | O=C(N/N=C/c1ccccc1O)C1(O)c2ccccc2-c2ccccc21 | . | 30
113 | O=C(NCc1ccc2c(c1)OCO2)c1ccc(CS(=O)(=O)c2ccc(Br)cc2)o1 | . | -7
114 | O=C(NC1CCCCC1)c1noc2c1CCCC2 | . | -1
115 | CC(=O)Oc1ccccc1C(=O)Nc1ccc(OC(F)F)cc1 | -2.6 | -19
116 | Cc1ccc(C)c(-c2cc(C)ncc2C)c1 | . | 13
117 | O=CN1CCN(c2nc(-c3ccccc3)cs2)CC1 | 1.8 | 10
118 | NC(=O)c1cc(-c2ccccc2)nc2ccc(Br)cc12 | -1.2 | .
119 | O=C(COC(=O)Cn1cnc2ccccc2c1=O)NCc1ccccc1Cl | . | -16
120 | CC(C(=O)O)n1cnc2ccccc21 (stereo unspecified) | . | 7
121 | CCOC(=O)NNC(=S)Nc1ccccc1Cl | -2.1 | .
122 | CC(OC(=O)CCc1c[nH]c2ccccc12)C(=O)c1ccccc1 (stereo unspecified) | -4.2 | 16
123 | CCS(=O)(=O)c1ccc2oc(=O)c(/C=C(\O)c3ccco3)nc2c1 | . | 35
124 | Cc1nnc(SCC(=O)Nc2sc3c(c2C(N)=O)CCC3)n(N)c1=O | . | 17
125 | Cc1noc(/C=C/N(C)C)c1S(=O)(=O)NCCN1CCC(Cc2ccccc2)CC1 | -0.4 | 7
